Rango-impB inh = prevents formation of the Rango-importin beta complex; hit rate 0.031% among 340,000; Rango CFP/YFP FRET sensor + importin beta, 45 min; Potency, µM (top dose mostly 92.2 µM), inactives show at the top dose inhibition of complex formation; AID 540263; active = rising FRET ratio curve, often small or poorly fitted; inconclusive = mostly compound fluorescence or quenching in the first reads; inactive = flat curves in all reads;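 note: potency is the fitted concentration of half-maximal effect; 0% = DMSO wells and 100% = buffer wells lacking importin beta; nearly all actives have a fitted effect of over 15% in size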
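FRET biosensor (snurportin 1 IBB flanked by EYFP and cerulean), 50 nM, with compound 5 min, then 0.125 microM importin beta in PBS, 1 mM DTT, 0.02% Tween-20, 0.1% BSA. CFP/YFP ratio read after 45 min at room temperature; pre-read flags interference.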
miR-21 FLuc = miR-21 reporter, rising signal | 340,000 tested, under 10 active | HeLa miR-21 FLuc reporter, luciferase, 48 h | AID 2288 | Potency, µM (highest dose often 38.3 µM), for inactives: top-dose reporter change, positive = more light; active = well fitted rising curve with a large enough effect; inconclusive = small, poorly fitted or top-dose-only effect; inactive = no such curve, though single readings can be large or run the other way;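 note: % of control where 0% means no effect; miR-21 action dims this reporter so a rising signal means less miR-21 action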
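Luminescence from a firefly luciferase reporter carrying a miR-21 binding site downstream, stably expressed under a CMV promoter in HeLa cells that make miR-21 endogenously, reports miRNA modulation after 48 h compound exposure up to approximately 40uM final.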
GLA inh pH 4.5 = inhibitors of human alpha-galactosidase A at pH 4.5 | 230,000 tested, under 10 active | activity change, negative = inhibition, % at 105 µM | purified enzyme, 4-MU-alpha-Gal fluorescence, pH 4.5 | P06280; inconclusive = small, poorly fitted or top-dose-only inhibition, or a rising curve; inactive = flat fitted curve, though single readings scatter; no compound was filed as active;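 note: 0% = full activity with enzyme and -100% = basal without enzyme; dose as in the result columns while the protocol names 77 µM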
Target sequence (P06280 whole entry, looked up): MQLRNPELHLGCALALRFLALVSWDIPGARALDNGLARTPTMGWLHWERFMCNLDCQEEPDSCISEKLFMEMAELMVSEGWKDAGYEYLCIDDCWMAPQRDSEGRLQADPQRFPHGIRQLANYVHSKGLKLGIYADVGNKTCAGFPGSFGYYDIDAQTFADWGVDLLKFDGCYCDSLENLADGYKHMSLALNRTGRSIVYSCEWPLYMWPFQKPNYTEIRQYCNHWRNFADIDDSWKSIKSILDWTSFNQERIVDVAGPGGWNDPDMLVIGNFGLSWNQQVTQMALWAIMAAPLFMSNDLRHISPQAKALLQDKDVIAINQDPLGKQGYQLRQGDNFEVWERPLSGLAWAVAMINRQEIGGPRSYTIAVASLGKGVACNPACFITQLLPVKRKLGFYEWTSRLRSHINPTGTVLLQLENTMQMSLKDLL
Rango dissoc inh = inhibition of RanGTP-driven Rango-importin beta dissociation | O95149+P62826 | Biochemical FRET Rango-importin beta, RanGTP-induced dissociation | Potency, µM (titrated, usually from 46.1 µM), without a hit: top-dose activity change, negative = inhibition | hit rate 0.071% among 340,000; active means falling FRET ratio curve, often poorly fitted, with flat reads before Ran was added; inconclusive means other falling curves, or compound fluorescence or quenching; inactive means flat or rising ratio curve;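 note: potency is the fitted concentration of half-maximal effect; % of control where 0% means no effect; nearly all actives have a fitted effect of over 45% in size; -100% = wells without RanGTP and RCC1; the record marks most hits as doubtful in a second field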
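Rango FRET biosensor (snurportin-1 IBB flanked by N-terminal EYFP and C-terminal CFP10) at 0.1 uM, with 0.25 uM importin beta in PBS, 1mM DTT, 0.02% Tween-20, 0.1% BSA. 0.6 uM Ran, 2mM GTP and 0.2 uM RCC1 were then added for 45 min at room temperature. Inhibition read as loss of FRET rise.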
Active calls of the source: *; ? = inconclusive; / = no result given; & = joins results of further samples; [ ] = dose if it differs, or a comment.

Rango-impB inh | miR-21 FLuc | GLA inh pH 4.5 | Rango dissoc inh | smiles
-0.1% | 0% | 0 | 1% | Cc1cccnc1NC(=O)c1ccc(S(=O)(=O)N2CC(C)OC(C)C2)cc1 (configuration not stated)
2.2% | 0% | / | -18% | Cc1ccccc1N1CCN(C2CCCN(C(=O)CCN3CCCCC3=O)C2)CC1 (configuration not stated)
-0.1% | / | / | 31% | COc1cccc(NC(=O)CN(C)CC(=O)NCc2ccco2)c1
-0.5% | -1% | 4 | 17% | CC1(C)CC(=O)C2=C(C1)N(Cc1ccco1)C(=O)NC2(C(F)(F)F)C(F)(F)F
-2.6% | 15% | -4 | -6% | COc1cccc(-n2c(SCC(N)=O)nc3c([nH]c4ccccc43)c2=O)c1
0.8% | -4% | 1 | -7% | CCn1nc(CCC(=O)O)c2ccccc2c1=O
-2.3% | -1% | -13 | 19% | CC(C)NC(=O)C1CCN(C2CCN(C(=O)c3ccc4cccc(F)c4n3)CC2)CC1
-0.9% | -1% | -5[21.1 µM] | 2% | Cc1ccccc1NC(=O)c1ccc(F)c(S(=O)(=O)N2CCCCC2)c1
? | / | / | ? | COc1ccccc1Nc1cc2cc(Br)ccc2c(=O)[nH]1
-2.5% | 4% | -10 | -4% | O=C(NCC(c1cccnc1)N1CCN(c2ccc(F)cc2)CC1)c1ccc2c(c1)OCO2 (configuration not stated)
? | -41% | 1 | 5% | CCS(=O)(=O)c1ccc2oc(Nc3ccc(OC)cc3)nc2c1
0.8% | / | / | -8% | COc1ccccc1CCNC(=O)CN1C(=O)c2ccccc2S1(=O)=O
-1.4% | / | / | 10% | CCOC(=O)N1CCN(C(=O)c2ccc(NS(=O)(=O)c3ccc4[nH]c(=O)[nH]c4c3)cc2)CC1
-1.4% | 2% | 3 | -2% | COC(=O)c1nc2n(n1)C(c1cc(OC)ccc1OC)C(C(=O)OC1CCCCC1)=C(C)N2 (configuration not stated)
8.2% | / | / | 18% | CC(C)C[C@@H](CN)NC(=O)c1nc[nH]c1C(=O)N[C@@H](Cc1ccccc1)C(=O)CNC[C@H](C)NC(=O)c1nc[nH]c1C(=O)N[C@@H](CC(=O)O)C(=O)O
-6.9% | -3% | 4 | 0% | CCCCNC(=O)CSc1nnc(Cc2ccccc2)n1CC1CCCO1 (configuration not stated)
2.7% | 13% | 9 | -6% | O=C1C=C(Nc2ccc(Cl)cc2)CC(c2ccccc2)C1 (configuration not stated)
? | -41% | -5 | -5% | Cc1cc(C)n2c(Nc3ccc4c(c3)OCCO4)c(-c3ccc(C)o3)nc2n1
0.4% | -3% | -8 | -3% | CC1=C(OC(=O)C(C)(C)C)C(C)(C)C(c2ccccc2)OC1=O (configuration not stated)
-0.5% | 3% | -1 | 6% | O=C(NCCSCc1ccc(Cl)cc1)c1cccs1
-1.8% | -5% | / | 5% | Cc1cccc(OCc2nnc(SCC(=O)N3CCCCC3)o2)c1
-1.1% | 0% | / | 2% | CCC(C(=O)NCC1CCCO1)N(C(=O)CNS(=O)(=O)c1ccccc1)c1ccc(F)cc1 (configuration not stated)
0.7% | -1% | / | 6% | Cc1ccc(S(=O)(=O)NCCNC(=O)c2ccc(C)nc2)cc1
0.9% | / | / | 0% | O=c1oc(=O)c2ccccc2c2ccccc12
-3.0% | -9% | 4 | 1% | CCN(CC1COc2ccccc2O1)S(=O)(=O)c1ccc(C)cc1 (configuration not stated)
-0.1% | 2% | 5&-5 | 2% | CCN1C(=O)N(S(=O)(=O)C(F)(F)F)[C@@H](c2ccccc2)C(C(=O)OC)=C1C
-0.5% | 2% | -22 | 10% | CN(C)CCNC(=O)c1cccc(NS(=O)(=O)c2ccc(Cl)c(Cl)c2)c1
-10% | -4% | -13 | -6% | CC(C)c1c(O)nc(SCCN2CCOCC2)[nH]c1=O
1.8% | 1% | -5 | 24% | O=c1c2c(ncn1CCO)nc1n2CCC1
0.8% | 0% | 0 | -15% | O=C(COC(=O)c1cc(NS(=O)(=O)c2cccs2)ccc1O)Nc1ccccc1
0.2% | -2% | / | 19% | Cc1ccc(NC(=O)NC2CCCCCCC2)c(C)c1
? | 0% | -10 | ? | COc1ccc(CC2S/C(=C(\C#N)C(=O)NCc3ccco3)N(c3ccc(C)cc3)C2=O)cc1 (configuration not stated)
6.3% | -9% | 8 | 19% | CCn1ncc(NC(=S)Nc2ccc(OC)c(OC)c2)c1C(N)=O
-3.8% | -3% | 0 | -18% | CCC(C)NC(=O)Cn1c(=O)n(-c2ccccc2)c(=O)c2ccc(C(=O)NCc3ccco3)cc21 (configuration not stated)
1.0% | 0% | 5 | -9% | O=C1OCCC1Sc1nnc(-c2cccnc2)n1-c1ccccc1F (configuration not stated)
3.3% | -5% | -17[21.1 µM] | -9% | CC(C)(C)c1cc(CCC(=O)NN)cc(C(C)(C)C)c1O
-4.0% | -4% | 2 | 1% | CCN(CC)S(=O)(=O)c1ccc(N2CCCC2)c(NC(=O)C2CCCCC2)c1
5.2% | ? | / | 15% | OCCNCc1c(OCc2ccc(Cl)cc2)ccc2ccccc12
4.4% | -21% | -1 | -2% | COc1ccc(C(c2c(NC(=O)c3ccccc3)sc(C)c2C)N2CCN(CCO)CC2)cc1 (configuration not stated)
0.2% | -9% | 1 | -8% | Cc1cc(SCC#N)n2nc(C)c(-c3ccc(Cl)cc3)c2n1
-2.1% | -11% | -9 | -8% | CNS(=O)(=O)c1cccc(C(=O)OCc2cc(Cl)cc3c2OCOC3)c1
0.1% | -3% | -6 | 50% | O=C(/C=C/c1ccc(O)cc1)OCc1occc(=O)c1O[C@@H]1OC(CO)[C@@H](O)[C@H](O)[C@@H]1O (some centres not stated)
-0.8% | / | / | 0% | COc1ccc(COC(=O)c2cc([N+](=O)[O-])ccc2N2CCOCC2)cc1F
-0.2% | / | / | -12% | CC(=O)OC(C)(C)/C=C/C(=O)[C@](C)(O)C1[C@H](O)C[C@@]2(C)C3CC=C4C(C=C(O[C@@H]5O[C@H](CO)[C@@H](O)[C@H](O)[C@H]5O)C(=O)C4(C)C)[C@]3(C)C(=O)C[C@]12C (some centres not stated)
3.1% | -47% | 3 | 18% | Cc1ccc2c(Cl)c(C(=O)NCC3CCCO3)sc2c1 (configuration not stated)
0.1% | -4% | / | -2% | Nc1ccccc1S(=O)(=O)NCCCCc1ccccc1
5.1% | -4% | -2 | -2% | CCOc1ccccc1N(CC(=O)Nc1ccccc1C(=O)O)S(C)(=O)=O
-1.3% | -2% | / | 0% | CCOc1c(C)cnc2c1c(=O)n(Cc1ccccc1F)c(=O)n2C
1.7% | -12% | -4 | 1% | N#C/C(=C\Nc1ccccc1SC(F)(F)F)c1nc(-c2ccccc2)cs1
-0.7% | -5% | -4 | 6% | O=C(CSc1nnc(CCCO)n1-c1ccccc1)NCCc1ccccc1

(listing goes on)
Rango-impB inh | miR-21 FLuc | GLA inh pH 4.5 | Rango dissoc inh | smiles
-0.3% | -11% | 5 | 0% | CC(NS(=O)(=O)c1ccccc1)C(c1cccs1)N1CCOCC1 (configuration not stated)
-0.7% | / | / | -3% | Cc1ccc(C2=CSC3=NCCN23)cc1
0.3% | 1% | 4 | 0% | O=C(COC(=O)c1cccnc1)Nc1cccc(Cl)c1
0.0% | -12% | 3 | 0% | O=C(NC(=S)NCc1ccccc1)c1ccccc1
? | 0% | 1 | ? | COCCn1c(-c2ccc(-c3ccc([N+](=O)[O-])cc3Br)o2)nc2c1c(=O)[nH]c(=O)n2CC(C)C
-0.5% | -4% | 0 | 10% | COC(=O)c1n[nH]n(-c2cc(Cl)cc(Cl)c2)c1=O
-0.9% | -11% | 8 | -7% | COC(=O)c1ccc(-c2nc3ccccc3[nH]2)cc1
-1.4% | -3% | -6 | 0% | O=[N+]([O-])c1cccc(CSc2ncnc3ccccc23)c1
-2.6% | 11% | / | 1% | C=CCOc1ccccc1CN1CCC(C(=O)Nc2cccc(-c3ccn[nH]3)c2)CC1
-4.7% | / | / | -4% | CC1CC(C)CN(C(=O)COC(=O)c2cc3ccccc3oc2=O)C1 (configuration not stated)
-4.0% | -28% | / | -4% | CCC(C)NC(=O)c1ccc(NS(=O)(=O)c2ccc3[nH]c(=O)[nH]c3c2)cc1 (configuration not stated)
-4.7% | -6% | -6 | -1% | CCOC(=O)C1CCN(C(=S)Nc2cc(C)ccc2C)CC1
6.6% | 0% | -3 | 11% | CCN(CC)CCNC(=O)CCCNC(=O)Cn1cnc2sc(C)c(C)c2c1=O
? | -54% | / | -14% | C=CCNC(=O)c1cc2c(=O)n3ccccc3nc2s1
-0.9% | 3% | 12 | 1% | Cn1c(SCC(=O)NCc2cccs2)nnc1-c1ccc(S(=O)(=O)N2CCCC2)cc1
0.5% | / | / | -15% | Cc1ccc2c(Cl)c(Cc3ccccc3)c(=S)[nH]c2n1
3.1% | 3% | -13[21.1 µM] | 9% | O=C(CCCNS(=O)(=O)c1cccc2nsnc12)NCCN1CCN(c2ccccc2F)CC1
0.4% | -5% | / | 0% | CCC(C)C(NC(=O)OCc1ccccc1)C(=O)NCC(c1ccccc1)N(C)C (configuration not stated)
? | 3% | / | ? | CCOC(=O)C1=C(C)N=c2s/c(=C\c3ccc(OCC(=O)O)cc3)c(=O)n2C1c1ccc(Cl)cc1 (configuration not stated)
-2.5% | / | / | 0% | CCCC1(CCC)NC(=O)N(CC(=O)Nc2ccc3c(c2)OCCO3)C1=O
-9.1% | 0% | -4 | 0% | NC(CO)(CO)COCc1ccccc1
1.4% | -9% | / | -4% | O=C(CSc1ccc(-c2cccnc2)nn1)N1CCCCC1
0.4% | / | / | 3% | COc1ccc(NC(=O)COC(=O)CCc2ccc(S(=O)(=O)N3CCOCC3)cc2)cc1Cl
-2.3% | -8% | 8 | -13% | CCC(C)NC(=O)CS(=O)(=O)Cc1nc(-c2cccc(OC)c2)oc1C (configuration not stated)
-0.9% | / | / | 5% | CS(=O)(=O)c1ccc2nc(NC(=O)C3CC3)sc2c1
0.1% | -70% | -1 | 1% | COc1ccc(CNC(=S)N/N=C(/C)c2ccccc2)cc1
-0.1% | -15% | 5 | 8% | Clc1ccc(Nc2ncnc3c2cnn3-c2ccccc2)cc1
-2.5% | -44% | 3[21.1 µM] | 6% | CN(Cc1ccccc1)C(=O)C(C(=O)c1ccc(F)cc1)n1cc(Cl)ccc1=O (configuration not stated)

An excerpt of these results, with bars between the fields.
SMILES | Rango-impB inh | miR-21 FLuc | GLA inh pH 4.5 | Rango dissoc inh
CCC(C)C(NC(=O)OCc1ccccc1)C(=O)NCC(c1ccccc1)N(C)C (configuration not stated) | 0.4% | -5% | / | 0%
CCOC(=O)C1=C(C)N=c2s/c(=C\c3ccc(OCC(=O)O)cc3)c(=O)n2C1c1ccc(Cl)cc1 (configuration not stated) | ? | 3% | / | ?
CCCC1(CCC)NC(=O)N(CC(=O)Nc2ccc3c(c2)OCCO3)C1=O | -2.5% | / | / | 0%
NC(CO)(CO)COCc1ccccc1 | -9.1% | 0% | -4 | 0%
O=C(CSc1ccc(-c2cccnc2)nn1)N1CCCCC1 | 1.4% | -9% | / | -4%
COc1ccc(NC(=O)COC(=O)CCc2ccc(S(=O)(=O)N3CCOCC3)cc2)cc1Cl | 0.4% | / | / | 3%
CCC(C)NC(=O)CS(=O)(=O)Cc1nc(-c2cccc(OC)c2)oc1C (configuration not stated) | -2.3% | -8% | 8 | -13%
CS(=O)(=O)c1ccc2nc(NC(=O)C3CC3)sc2c1 | -0.9% | / | / | 5%
COc1ccc(CNC(=S)N/N=C(/C)c2ccccc2)cc1 | 0.1% | -70% | -1 | 1%
Clc1ccc(Nc2ncnc3c2cnn3-c2ccccc2)cc1 | -0.1% | -15% | 5 | 8%
CN(Cc1ccccc1)C(=O)C(C(=O)c1ccc(F)cc1)n1cc(Cl)ccc1=O (configuration not stated) | -2.5% | -44% | 3[21.1 µM] | 6%

This is a subset; rates above refer to the full screens.
